PrP UTR inh – inhibition of PrP 5' UTR reporter expression | cell-based PrP 5' UTR mRNA reporter, plate reader | inhibition, % (concentration not given with the values) | actives 0.35% (n = 340,000) | AID 488862;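 active = every replicate at 50% or more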;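 note: 0 = median of the neutral control wells; tested in H4 reporter cells; numbers are from one replicate; inactives centre near -14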
Sa RN4220 lethal – S. aureus RN4220 growth inhibition; actives 0.33% (n = 330,000); OD600, 16 h; inhibition, % (no concentration beside the values);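 active = z-score of -3 or lower and OD600 up to 0.18 on both plates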;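 note: plate controls were untreated cells for no effect and reference antibiotic for full effect; stock transfer was 100 nL into about 80 µL; one replicate is shown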
Autofluor counter – flagged as autofluorescent in microsphere protease counterscreen. compound autofluorescence counterscreen, microsphere flow cytometry; active compounds read high. fluorescence intensity (concentration not given with the values). actives 3.1% (n = 360,000);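 active = at least 3 SD above the mean of all compounds, about 16000 in these data; inconclusive = too few beads counted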;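 note: 100 nL of 1 mM stock went into each well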
ugtP null kill – compounds lethal to S. aureus RN4220 ugtP deletion mutant; OD600 growth, 16 h; some inactives read as strong as hits; growth inhibition, % (test concentration not listed); actives 0.54% (n = 330,000); AID 1259309;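 active = z-score under -3 and OD600 up to 0.15 on both plates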;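 note: plate controls were untreated wells for no effect and antibiotic for full effect; wells of about 80 µL received 100 nL stock; the first replicate is given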
Mtb hypoxia rep – reduces hypoxia-regulated biosensor signal in M. tuberculosis | actives 0.1% (n = 300,000) | fluorescence inhibition, % (concentration not given with the values) | M. tuberculosis hypoxia-regulated fluorescent reporter, fluorescence | AID 1159583;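 active = 35 to 45% if threefold the growth effect, above 45% if 1.5-fold the growth effect; inactive = the rest, general growth blockers included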;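 note: wells of about 50 µL received 100 nL stock; 0% = vehicle wells and 100% = reference inhibitor wells; whole bacteria with a GFP reporter of the hypoxia response; strong numbers were not always called active; many hits fall short of the cut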
BJeLR viability – kills HRASV12-expressing BJeLR cells | BJeLR (HRASV12) viability, CellTiter-Glo ATP luminescence, 48 h; reference of the scale not given here | inhibition, % (concentration not given with the values) | actives 0.17% (n = 300,000) | AID 1554;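 active = replicate mean above 50%; inconclusive = above 50% but judged a plate artefact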;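 note: 50 nL library stock added to about 25 µL; numbers are from one replicate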
Mtb hypoxia rep growth – also measured in Mtb hypoxia rep; calls as there; growth inhibition, %; measured here: M. tuberculosis growth (absorbance);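 0% = vehicle and 100% = reference antibiotic; read after six days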
Numbers without * were called inactive; ? = inconclusive; · = not tested or not shown.

Under each structure – PrP UTR inh, Sa RN4220 lethal, Autofluor counter, ugtP null kill, Mtb hypoxia rep, Mtb hypoxia rep growth, BJeLR viability
> COc1cc(C(=O)C(=O)c2ccc(O)c(OC)c2)ccc1O
    -1.2, 5.8, 3525, 4.0, 3.8, -0.3, 5.5
> COc1ccc(S(=O)(=O)N2CCc3cc(OC)c(OC)cc3C2)cc1
    -22.8, 4.3, 4617, 0.1, 10.2, 2.0, 4.3
> CCCCNC(=O)c1onc(CSc2cc(C)cc(C)c2)c1C(=O)O
    -18.6, 25.0, 4227, 12.3, 8.2, 9.6, -10.6
> COC(=O)c1ccc(Oc2nc(NC(C)C)nc(NC(C)C)n2)cc1
    10.6, 2.6, 6123, 14.0, 2.9, -5.0, 2.8
> COc1ccc(O)c(/C=N/NC(=O)c2cccc(N3CCCC3=O)c2)c1
    0.3, ·, 6829, ·, ·, ·, 4.7
> Cc1sc(-n2c(C)cc(/C=N/n3cnnc3)c2C)c(C#N)c1C
    5.5, ·, 22786*, ·, ·, ·, 3.3
> COC(=O)Cc1[nH]nc2c1C(c1ccc(O)c(OC)c1)C(C#N)=C(N)O2 (stereo unspecified)
    -18.7, 5.9, 4434, 8.4, 9.9, 15.0, -1.8
> O=C(O)c1c2c(nc3ccccc13)/C(=C/c1cccc([N+](=O)[O-])c1)CCC2
    0.2, 0.8, 5524, 7.3, -5.8, -2.3, -3.2
> COC(=O)c1ccc(/C=N/NC(=S)NCCN2CCOCC2)cc1
    -8.1, ·, 3092, ·, ·, ·, -2.5
> C[C@H](NC(=O)[C@@H]1Cc2ccccc2CN1)C(=O)NC1CCCC1
    -1.2, 1.7, 5626, 5.8, 2.9, 5.9, -2.8
> CC(=O)Nc1nnc(SCC(=O)NCCOc2ccccc2)s1
    -6.2, -1.0, 3112, -11.7, -0.2, -0.4, -2.3
> CN(C)CCNC(=O)CNC(=S)N(Cc1ccccc1)Cc1ccccc1F
    -25.0, 3.4, 3860, 0.4, -5.3, 5.9, -5.8
> CN(C)c1cc(-c2ccc(C#N)cc2)oc(=O)c1Cl
    ·, 3.4, 3693, 5.4, 8.3, 8.3, 4.4
> Cn1c(/N=C/c2cccs2)nc2ccccc21
    -23.2, ·, 5798, ·, ·, ·, -3.8
> COc1ccc(CN2CCN(Cc3c[nH]c4ccccc34)CC2CCO)c(F)c1 (stereo unspecified)
    -19.9, 4.4, 3667, 8.7, 13.5, 6.6, 4.6
> COc1cccc(CN=C2Nc3ccccc3CS2)c1
    -18.8, 4.8, 4397, -5.6, -2.5, -4.3, 0.7
> COc1cccc(N(CC(=O)N2CCc3ccccc3C2)S(C)(=O)=O)c1
    -14.4, 0.2, 22901*, -1.3, 3.7, 0.5, -3.0
> Cc1cc(/C=N/n2c(COc3ccccc3)nc3ccccc3c2=O)c(O)c([N+](=O)[O-])c1
    -11.4, ·, 2034, ·, ·, ·, 2.4
> CN(C)S(=O)(=O)c1ccc(N=Cc2c(C(F)(F)F)[nH][nH]c2=O)cc1
    -24.2, 0.7, 2941, 2.2, 10.9, 6.4, 2.3
> O=C(NCc1ccco1)c1cccc2c1C(=O)c1ccc(N3CCC(Cc4ccccc4)CC3)cc1S2(=O)=O
    -13.2, 4.8, 6166, 2.0, 14.9, 7.7, ·
> O=C(NN=Cc1ccc[nH]1)C1COc2ccccc2O1 (stereo unspecified)
    ·, 3.9, ·, -2.4, 12.2, 6.4, ·
> CCN(C(=O)COC(=O)c1ccccc1O)c1cccc2ccccc12
    -24.5, -0.8, 4206, 1.3, 6.2, 11.7, ·
> O=C(O)c1ccc(NS(=O)(=O)c2ccc(N3CCCC3)c([N+](=O)[O-])c2)cc1
    -9.2, 1.5, 3377, 5.6, 6.7, 3.6, -8.4
> CC1CCCCN1C(=S)NCc1ccccc1 (stereo unspecified)
    -8.0, 9.5, 2244, 0.2, 0.2, -3.5, 8.6
> CC(C)NS(=O)(=O)c1cc(F)ccc1CN1C(=O)c2cccnc2C1=O
    9.1, 1.6, 3144, -5.3, -10.6, -10.6, 11.6
> CC1C=CCC2C(=O)N(c3cccc(C(=O)Nc4ccc(Br)cc4)c3)C(=O)C12 (stereo unspecified)
    -17.4, -4.2, 6379, -5.4, 3.9, 5.4, 10.6
> Clc1ccc(OCCn2cnc3ccccc32)cc1
    -15.8, -1.4, 2137, -10.2, ·, ·, -1.7
> O=C(COc1ccccc1[N+](=O)[O-])Nc1cccc(S(=O)(=O)NC2=NCCCCC2)c1
    -18.5, 4.4, 4280, 6.4, 11.6, 3.9, -12.2
> CN(C)S(=O)(=O)c1cc(C(=O)OCCn2cnc3c2c(=O)n(C)c(=O)n3C)ccc1Cl
    -15.2, 6.0, 4457, 8.7, 18.7, -2.5, 4.4
> S=C(NNC(=S)NC1CC2CCC1C2)NC1CC2C=CC1C2 (stereo unspecified)
    -20.7, 8.2, 6049, 10.4, 2.9, -1.5, -2.7
> O=C1CCCCN1CCCC(=O)N1CCCC(Nc2ccc(F)c(F)c2)C1 (stereo unspecified)
    -21.4, 0.1, ·, 5.6, 1.5, -13.1, -10.3
> O=C(O)c1ccc(C=C(c2nc3ccccc3s2)c2nc3ccccc3s2)cc1
    -12.2, 22.9, 4358, 19.3, -5.1, 2.4, -8.3
> CCOC(=O)c1cc(S(=O)(=O)Nc2ccc(OC)cc2OC)cn1C
    -18.7, 2.2, 3782, 3.6, -6.4, 1.0, 3.9
> COc1ccc(Br)cc1C=NNc1cccc(C(=O)O)c1
    ·, 6.6, ·, -6.9, -7.5, -6.3, ·
> CCC1(c2ccc(F)cc2)NC(=O)N(CC(=O)N2CCc3ccccc32)C1=O (stereo unspecified)
    6.7, 1.8, 4168, -2.1, 2.4, 2.0, ·
> O=C1NC2NC(=O)N(C(Cc3ccccc3)C(=O)O)C2N1 (stereo unspecified)
    -9.3, -2.2, 10658, -4.3, -0.1, 4.9, -4.5
> Cc1ccc(OCC(=O)Nc2cc(C(C)(C)C)on2)cc1C
    -18.1, -4.1, 5787, 5.5, 15.5, 10.7, 1.9
> CCOC(=O)C(CC)Sc1nc2c(cnn2-c2ccccc2)c(=O)[nH]1 (stereo unspecified)
    -14.9, 8.2, 6536, -19.6, 0.1, 6.6, -16.4
> CCOc1cc(S(=O)(=O)NC2CCCCCC2)ccc1F
    -13.4, 2.5, 4310, -2.9, ·, ·, 9.3
> Clc1cccc(CNc2nnnn2-c2ccccc2)c1
    -12.0, -0.6, 2444, -12.5, ·, ·, -12.0

Six of these compounds in a different format:
| mol | PrP UTR inh | Sa RN4220 lethal | Autofluor counter | ugtP null kill | Mtb hypoxia rep | Mtb hypoxia rep growth | BJeLR viability |
| --- | --- | --- | --- | --- | --- | --- | --- |
| COc1ccc(Br)cc1C=NNc1cccc(C(=O)O)c1 | · | 6.6 | · | -6.9 | -7.5 | -6.3 | · |
| CCC1(c2ccc(F)cc2)NC(=O)N(CC(=O)N2CCc3ccccc32)C1=O (stereo unspecified) | 6.7 | 1.8 | 4168 | -2.1 | 2.4 | 2.0 | · |
| O=C1NC2NC(=O)N(C(Cc3ccccc3)C(=O)O)C2N1 (stereo unspecified) | -9.3 | -2.2 | 10658 | -4.3 | -0.1 | 4.9 | -4.5 |
| Cc1ccc(OCC(=O)Nc2cc(C(C)(C)C)on2)cc1C | -18.1 | -4.1 | 5787 | 5.5 | 15.5 | 10.7 | 1.9 |
| CCOC(=O)C(CC)Sc1nc2c(cnn2-c2ccccc2)c(=O)[nH]1 (stereo unspecified) | -14.9 | 8.2 | 6536 | -19.6 | 0.1 | 6.6 | -16.4 |
| CCOc1cc(S(=O)(=O)NC2CCCCCC2)ccc1F | -13.4 | 2.5 | 4310 | -2.9 | · | · | 9.3 |

Continued:
Under each structure – PrP UTR inh, Sa RN4220 lethal, Autofluor counter, ugtP null kill, Mtb hypoxia rep, Mtb hypoxia rep growth, BJeLR viability
> CC(=O)Nc1ccc(C=NNC(=O)c2ccc(NS(=O)(=O)c3cccs3)cc2)cc1
    -2.6, 2.2, 3814, 0.7, 7.2, 10.3, ·
> Cc1cccc(NC(=O)c2ccc3c(Cl)c4c(nc3c2)CCCC4)n1
    -74.8, 12.6, 2072, 0.5, -3.4, -7.4, -2.2
> CN(Cc1cccs1)C(=O)c1ccc(S(=O)(=O)N2CCCCC2)cc1
    -10.8, 1.2, 3403, 7.4, 3.7, -4.1, 2.5
> CC(C)N1C(=O)CCC1C(=O)NCc1ccco1 (stereo unspecified)
    2.4, 2.5, 4374, 7.1, 2.6, -2.8, 5.0
> CN(Cc1ccc(C#CCCO)cc1)CC1CCCN(CCc2ccc(Cl)cc2)C1 (stereo unspecified)
    -7.0, -0.1, 4523, 1.4, 6.1, 10.4, 3.1
> CC(=O)c1ccc(S(=O)(=O)N2CCN(C(=O)c3ccccc3Cc3ccccc3)CC2)cc1
    -13.4, 0.3, 6980, -3.8, -3.4, 5.4, -2.8
> CCOc1ccccc1-n1c(SCC(=O)N2CCOCC2)nnc1-c1ccccn1
    -11.4, 6.1, 2789, 6.9, ·, ·, -5.0
> COc1cc([N+](=O)[O-])ccc1N1C(=O)CC(Sc2nccc(C)n2)C1=O (stereo unspecified)
    -25.1, 8.7, 3022, 2.6, 0.0, -2.0, 7.5
> COc1ccccc1C(=O)Nc1nnc(-c2ccc(F)cc2)s1
    -39.2, 6.0, 3365, -11.0, -8.4, 2.0, -4.1
> CCOc1cccc(C2c3c(oc4ccccc4c3=O)C(=O)N2c2ccccn2)c1 (stereo unspecified)
    ·, 0.8, ·, 4.1, ·, ·, -2.7
> Cn1cccc1-c1nc2ccc([N+](=O)[O-])cc2[nH]1
    -63.9, 1.5, 3109, -1.1, 6.2, 1.1, 3.7
> COCCOC(=O)C1=C(C)NC(C)=C(C(=O)OC(C)C)C1c1cccc([N+](=O)[O-])c1 (stereo unspecified)
    -17.8, 1.8, 4008, -10.5, -0.5, 5.4, -9.2
> Cc1ccccc1CC1CCN(CCCNC(=O)Nc2ccccc2)CC1
    -23.5, 2.5, 3542, 4.2, 13.3, 13.4, 4.8
> O=C(c1ccccc1)N(Cc1cccc(Br)c1)C1CCS(=O)(=O)C1 (stereo unspecified)
    -13.1, 3.3, 6039, 0.1, 0.9, 0.6, -0.4
> O=C(CSc1ccc(-c2ccco2)nn1)Nc1ccc(F)cc1
    -16.5, 3.6, 5052, 2.3, 12.0, 5.4, 1.5
> COc1ccc(/C=C2\SC(=S)N(N3C(=O)CCC3=O)C2=O)cc1O
    -23.1, 2.5, 4921, 5.3, -5.4, 8.4, 6.9
> COC(=O)c1cc2oc3ccccc3c2n1Cc1ccccn1
    -18.0, -1.4, 3166, 40.6, 8.2, 3.9, 4.8
> COc1ccc(N(C(=O)c2snc(C(N)=O)c2N)C(C(=O)NC2CCCC2)c2cccs2)cc1OC (stereo unspecified)
    -19.4, 1.5, 3681, 10.4, -6.9, -5.3, 3.2
> Cc1cc(NS(=O)(=O)c2cccs2)no1
    -26.6, 4.2, 8286, -0.4, 10.6, 8.6, 2.5
> CC1CCCCC12NC(=O)N(CC(=O)Nc1cccc(S(=O)(=O)N3CCCCC3)c1)C2=O (stereo unspecified)
    2.6, -1.6, 8919, -21.8, 4.8, 0.5, ·
> CCOC(=O)Nc1ccc(NC(=O)OCC)cc1
    -24.1, 1.5, 12718, -0.1, 1.8, 4.1, 12.3
> Brc1csc(C=Nc2ccc3c(c2)OCCOCCOCCOCCO3)c1
    -24.8, 2.5, 2591, -3.0, -0.7, -1.7, -11.7
> CCn1c(SCC(=O)N(C)c2ccccc2)nc2c([nH]c3ccccc32)c1=O
    5.1, 5.4, 5413, -0.9, -0.2, 6.4, 8.2
> O=C(NCCCNc1ccc(C(F)(F)F)cc1[N+](=O)[O-])c1ccc(Cl)cc1
    -21.9, 5.2, 9764, -19.8, 3.7, 2.2, 1.3
> Cc1cccc(NC(=S)NC(=O)CCc2ccccc2)c1C
    -26.8, -6.0, 8182, 7.6, ·, ·, 7.7
> N#Cc1nc(-c2ccc(F)cc2)oc1N1CCC(C(N)=O)CC1
    1.3, -0.9, 3148, -4.5, 3.5, 0.6, -2.2
> COc1ccc2c(c1)c(CC(=O)OCC(N)=O)c(C)n2C(=O)c1ccc(Cl)cc1
    -9.4, 2.0, ?, 11.9, 5.8, -2.2, -5.5
> CSc1ncccc1C(=O)Nc1ccc2nc(C)sc2c1
    -31.7, 5.0, 4252, -1.3, -8.0, 2.0, 7.5

Compounds as they come. About 3.9% of those tested had a hit in this group.
